Screens: PubChem, Fisher Drug Discovery Resource Center
NPYLR7 ag: activates Aedes aegypti NPYLR7 receptor | HEK293T NPYLR7/Galpha15, GCaMP6s calcium fluorescence | AID 1259423 | activation, % at 10 µM | 0.15% of 270,000 active; in the data active means activation above about 40%;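 further: 0% = vehicle and 100% = reference agonist at the receptor; some compounds past the cut are filed as inactive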
NPYLR7 ag max-min: recorded beside NPYLR7 ag, whose call it bears; activation, %; measured here: Max-Min RFU normalised activation; some inactives read as strong as hits;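 span of the calcium signal over five minutes; 0% = vehicle and 100% = native peptide agonist; compound fluorescence can raise it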
The depositor's hits bear a star; & = joins results of further samples. A portion of the library; rates above refer to the full screens.

1. CCCCCCc1ccc(C(=O)N(CC(=O)N2CCc3sccc3C2c2ccccc2C)C2CCCCC2)cc1 (stereo not drawn)
2. Cc1ccc(-c2cnc(SCC#N)n2-c2ccccc2)cc1
3. Clc1ccc(-c2nc(CSc3nnc(C4(c5ccc(Cl)cc5)CCC4)o3)cs2)cc1
4. CCCCC(=O)N(C)c1c(CC)nc2c(OCc3ccc(C(F)(F)F)cc3)cccn12
5. O=c1c2ccccc2cnn1CN1CCN(S(=O)(=O)c2ccc(F)c(F)c2)CC1
6. CC(=O)N1CCc2c(nc(-c3ccncc3)nc2NC(C)c2ncc[nH]2)C1 (stereo not drawn)
7. CCOC(=O)c1cc(-c2ccc(N3CCN(C(=O)c4ccc(OC)cc4OC)CC3)cc2)n(-c2cccc(F)c2)n1
8. CC(C)NC(=O)N(Cc1ccc(F)cc1)Cc1ccc(OS(=O)(=O)C(C)C)cc1
9. COc1ccc(C(=O)N2CCC(n3c(=O)oc4ccc(F)cc43)CC2)c(OC)c1
10. COCCNC(=O)C1CCCN(C2CCN(C(=O)Cn3cncn3)CC2)C1 (stereo not drawn)
Assay by compound	1	2	3	4	5	6	7	8	9	10
NPYLR7 ag	-9.8	2.1	-4.4	4.2	-4.4	12.3	18.8	-0.6	2.5	6.0
NPYLR7 ag max-min	-5.1	6.4	-12.5	5.3	-5.9	9.3	4.2	7.7	-1.1	3.2

11. COc1cc(C(=O)N2CC(=O)Nc3ccccc32)ccc1OC(F)F
12. O=C(Cc1ccc2c(c1)OCCO2)c1c(O)cc(O)cc1O
13. Cc1nnnn1Cc1ccc(C(=O)N(C)CCC2CCCCO2)cc1 (stereo not drawn)
14. O=C(CBr)c1cccc([N+](=O)[O-])c1
15. CCN(CC)CCN(C(=O)c1ccc(Br)s1)c1nc2cc3c(cc2s1)OCO3
16. COCCn1cc(NC(=O)Nc2ccc(C)cc2C)c2ccccc21
17. COc1ccc(C2CC(c3cc(C)ccc3C)=NN2C(=O)CN2CCCCC2)cc1 (stereo not drawn)
18. NS(=O)(=O)c1ccc(CNC(=O)C2CC2c2ccccc2Br)s1 (stereo not drawn)
19. C#CCOc1ccc(N(C)C(=O)c2sc(Cl)nc2C)cc1
20. O=C(c1ccc2sc(=S)[nH]c2c1)N1CCCC1
Assay by compound	11	12	13	14	15	16	17	18	19	20
NPYLR7 ag	1.8	3.5	13.5	2.0	-7.9	8.7	19.4	12.5	-4.2	0.4
NPYLR7 ag max-min	1.3	0.2	9.1	6.8	-11.5	3.8	8.5	12.2	-9.7	2.0

Exported with each value named: two of the compounds above
[20] O=C(c1ccc2sc(=S)[nH]c2c1)N1CCCC1
  NPYLR7 ag: 0.4
  NPYLR7 ag max-min: 2.0
[8] CC(C)NC(=O)N(Cc1ccc(F)cc1)Cc1ccc(OS(=O)(=O)C(C)C)cc1
  NPYLR7 ag: -0.6
  NPYLR7 ag max-min: 7.7

Remaining list, next part:
21. Cc1cccc(N=C2SC(C)CN2C(=O)c2ccc3c(=O)n4c(nc3c2)CCC4)c1 (stereo not drawn)
22. O=C(c1ccc(F)cc1F)N1CCC(c2nc(-c3cccnc3)no2)CC1
23. CN(C)c1cccc(C(NC(=O)C2=Cc3cc(Cl)ccc3OC2)c2ccc(S(C)(=O)=O)cc2)c1 (stereo not drawn)
24. COc1cn(CC(=O)N2CCCc3ccccc32)c(CSc2nccn2C)cc1=O
25. Cn1c(SCC(O)COCc2ccc3c(c2)OCO3)nc2sc3c(c2c1=O)CCC3 (stereo not drawn)
26. COc1ccc(CCNC(=O)c2ccccc2N2CCC(NC(=O)c3cccc(Cl)c3)CC2)cc1
27. C=CCN(Cc1ccc(F)cc1)C(=O)c1c[nH]c2c(C)cccc2c1=O
28. Cc1cc(C)c(C(=O)N2CCC(N3CCC(C(=O)NC(C)C)CC3)CC2)o1
29. COc1cccc2c1OCCCN(C(=O)C1CCN(c3nc(C)c4ccccc4n3)CC1)C2
30. O=c1ccc(-c2ccncc2)nn1CCCNS(=O)(=O)c1ccc2c(c1)OCCO2
Assay by compound	21	22	23	24	25	26	27	28	29	30
NPYLR7 ag	-3.7	0.6	0.4	5.7	1.3	17.1	0.7	4.7	23.2	36.8
NPYLR7 ag max-min	-6.2	9.6	-5.1	-2.1	7.2	11.1	0.2	-1.3	1.9	29.6

31. CC(NC1CCOC1=O)c1nc(-c2ccccc2)cs1 (stereo not drawn)
32. O=C1CN(C(=O)c2cccs2)CC(O)CN1CCc1ccccc1 (stereo not drawn)
33. O=C(O)[C@H]1C[C@]2(CCCCN(CCO)C2=O)N(S(=O)(=O)c2ccccc2)[C@H]1c1ccco1
34. Nc1nc(-c2cccc3[nH]ccc23)cc(N2CCOCC2)n1
35. COCCN1CCc2c(cccc2-n2nnc(C(=O)N3CCOCC3C)c2C)C1 (stereo not drawn)
36. CC(C)(C(=O)NS(=O)(=O)c1ccc(C#N)cc1)c1ccccc1F
37. O=C(NCc1cccc(I)c1)c1cncn1-c1cccc(-c2cccc3c2sc2ccccc23)c1
38. CCN(Cc1cccc(F)c1)C(=O)c1cccc(NC(C)=O)c1
39. COc1ccc(NC(=O)N2CCC(n3cc(CN(C)C)nn3)CC2)c(C)c1
40. Cc1ccc2nc(CN(C)C(=O)C3CCCN(C4CCN(C)CC4)C3)[nH]c2c1 (stereo not drawn)
Assay by compound	31	32	33	34	35	36	37	38	39	40
NPYLR7 ag	1.5	26.1	1.7	7.3	5.7	7.7&-15.7	27.4	-1.7	26.1	2.4
NPYLR7 ag max-min	1.4	33.2	5.7	5.0	-10.2	10.5&-17.9	10.8	-3.2	13.0	1.6

Shown with values under each structure: part of the list above.
The line under a structure holds: NPYLR7 ag	NPYLR7 ag max-min
32. O=C1CN(C(=O)c2cccs2)CC(O)CN1CCc1ccccc1 (stereo not drawn)
  26.1	33.2
33. O=C(O)[C@H]1C[C@]2(CCCCN(CCO)C2=O)N(S(=O)(=O)c2ccccc2)[C@H]1c1ccco1
  1.7	5.7
34. Nc1nc(-c2cccc3[nH]ccc23)cc(N2CCOCC2)n1
  7.3	5.0
35. COCCN1CCc2c(cccc2-n2nnc(C(=O)N3CCOCC3C)c2C)C1 (stereo not drawn)
  5.7	-10.2
36. CC(C)(C(=O)NS(=O)(=O)c1ccc(C#N)cc1)c1ccccc1F
  7.7&-15.7	10.5&-17.9

(next part)
41. O=c1[nH]c(Cc2cnn(-c3ccccc3)c2)nc2cc(F)c(F)cc12
42. CC1(C)CCC(NC(=O)CN2CCS(=O)(=O)CC2)c2ccccc21 (stereo not drawn)
43. Cc1ccc(N=Nc2c(C)[nH]n(-c3nc(-c4ccc(Br)cc4)cs3)c2=O)cc1[N+](=O)[O-]
44. O=C(Nc1ccc(-c2ccccc2)cc1)N[C@@H](Cc1ccccc1)C(=O)N1CCC(C(=O)N2CCOCC2)CC1
45. CCOc1ccccc1C=CC(=O)c1ccc(OC)c(OC)c1
46. COCCNC(=S)NCCc1cc2ccc(C)cc2[nH]c1=O
47. CCc1nc2ccc(C(=O)N(C)Cc3ccco3)cn2c1N(C)CCCc1ccccc1
48. CS(=O)(=O)n1nc(-c2ccc(Cl)cc2)nc1N
49. CC1(C)C=C(CCOC(=O)N2CCC3(CC2)C(=O)NCN3c2ccccc2)CC(C)(C)N1
50. CCN(CC)c1cc(Cl)nc(SCc2cccc(C(=O)N3CCN(c4ccc([N+](=O)[O-])cc4)CC3)c2)n1
Assay by compound	41	42	43	44	45	46	47	48	49	50
NPYLR7 ag	-8.4	3.0	-4.2	6.3	1.5	7.1	13.1	6.0	1.6	-4.3
NPYLR7 ag max-min	-8.8	2.9	-7.7	5.4	2.2	5.8	10.7	2.5	-3.6	-3.5

51. COCc1cc(C)nc(N/N=C\c2ccc(OCc3ccccc3Cl)c(OC)c2)c1C#N
52. COc1cccc(CNC(=O)C2CCN(C(=O)[C@H](Cc3ccccc3)NC(=O)Nc3ccccc3Br)CC2)c1
53. CC(C)(CNC(=O)Cn1nc(-c2ccccc2)ccc1=O)N1CCCCC1
54. O=C(O)/C=C/c1ccc(Cn2ccnc2)cc1
55. O=C(Nc1ccc(SCC(=O)N2CCOCC2)nn1)c1ccccc1
56. O=C(NCCc1ccc(Cl)cc1Cl)c1csc(CSc2nnc(-c3ccco3)n2-c2ccc(Cl)cc2Cl)n1
57. O=[N+]([O-])c1cccc(C2c3cccn3CCCN2Cc2ccccc2[N+](=O)[O-])c1 (stereo not drawn)
58. O=C(NC1CCC(O)CC1)C1CCS(=O)(=O)C1 (stereo not drawn)
59. COc1ccccc1CN(C)C(=O)CCn1cnc2sc3c(c2c1=O)CCCC3
60. CCN1CCN(c2c(CN(C(=O)COCc3ccccc3)C3CC3)c(C)nn2-c2cccc(F)c2)CC1
Assay by compound	51	52	53	54	55	56	57	58	59	60
NPYLR7 ag	-3.0	15.0	5.9	-9.2&10.6	8.6	-0.5	3.4	1.7	0.2	-3.5
NPYLR7 ag max-min	3.1	18.0	4.0	-14.6&1.7	10.8	8.6	6.3	-0.5	1.8	-2.1

61. Cc1ccc2[nH]c3c(c2c1)CCCC3C(=O)N1CCc2c(nc[nH]c2=O)C1 (stereo not drawn)
62. CCN(CC)S(=O)(=O)c1nc(C)c(Cl)c(C)c1C#N
63. Cc1ccccc1S(=O)(=O)NC(=O)C1(C)CCN1C(=O)C1CCCCC1 (stereo not drawn)
64. Cc1nnc(SCC(=O)NCCNc2cccnc2)s1
65. CC1CC(NCc2cccn2C)CCN1Cc1ccccc1 (stereo not drawn)
66. CN(C)C=Nn1cnc2scc(-c3ccc(Cl)cc3)c2c1=O
67. CC(COc1ccccc1)NC1CCN(C(=O)c2ccco2)CC1 (stereo not drawn)
68. Cc1cccc(Nc2nc(-c3cnc(N4CCOCC4)nc3C)cc(=O)[nH]2)c1
69. O=c1oc(-c2ccccc2)nn1CC(O)COCc1cccs1 (stereo not drawn)
70. COc1ccc(C2CC(c3ccc(F)cc3)=NN2C(=O)CN2CCOCC2)c(OC)c1 (stereo not drawn)
Assay by compound	61	62	63	64	65	66	67	68	69	70
NPYLR7 ag	10.2	-4.1	4.5	2.1	5.3	-4.5	7.4	0.3	3.5	-7.7
NPYLR7 ag max-min	5.2	-6.4	0.9	-2.6	1.7	-11.5	3.3	-1.0	-0.4	14.3

71. CN1C(=O)C(O)(CC(=O)/C=C/c2ccco2)c2ccccc21 (stereo not drawn)
72. Cc1nn2c(-n3ccnc3)cc(C(C)(C)C)nc2c1-c1ccccc1
73. CCOc1ccc(-n2nnc(C(=O)Nc3ccccc3C#N)c2C)cc1
74. Cc1cc(NC(=O)CN2CCN(Cc3ccccc3C)CC2)no1
75. Cc1nc(CNC(=O)c2ccc(Cn3ccnc3)o2)nc2c1CCCC2
76. COCCn1c(C)cc(C(=O)COC(=O)C=Cc2ccc(Br)o2)c1C
77. NC(=O)CSc1nncc2c1[nH]c1ccc(F)cc12
78. CCc1ccc(NC(=O)CSc2nc(N)c(NC(=O)c3ccc(OC)c(OC)c3)c(=O)[nH]2)cc1
79. CCC1CN(CCNC(=O)C2CC(=O)N(CCOC)C2)Cc2cc(OC)ccc2O1 (stereo not drawn)
80. Cc1cc(C)cc(-n2c(SCC(=O)NCC3CCCO3)nc3c(c2=O)SC(C)C3)c1 (stereo not drawn)
Assay by compound	71	72	73	74	75	76	77	78	79	80
NPYLR7 ag	-7.0	-0.5	-1.9	-3.2	26.8	4.4	4.3	5.1	26.1	-1.4
NPYLR7 ag max-min	-4.5	21.9	-9.9	-3.4	17.7	7.3	3.6	4.7	6.5	-2.4

Four records drawn at random from the list so far:
75. Cc1nc(CNC(=O)c2ccc(Cn3ccnc3)o2)nc2c1CCCC2
80. Cc1cc(C)cc(-n2c(SCC(=O)NCC3CCCO3)nc3c(c2=O)SC(C)C3)c1 (stereo not drawn)
71. CN1C(=O)C(O)(CC(=O)/C=C/c2ccco2)c2ccccc21 (stereo not drawn)
77. NC(=O)CSc1nncc2c1[nH]c1ccc(F)cc12
Assay by compound	75	80	71	77
NPYLR7 ag	26.8	-1.4	-7.0	4.3
NPYLR7 ag max-min	17.7	-2.4	-4.5	3.6

(continued)
81. O=C(N[C@@H]1CCCCC1NC(=O)C1CCCN(S(=O)(=O)Cc2ccccc2)C1)c1ccc(F)cc1 (stereo partly drawn)
82. Cc1ccc(-c2nc(C)c(C)c(N3CCN(C(=O)c4ccc(Br)cc4)CC3)n2)cc1
83. Cc1cc(C)n(-c2ccc(NC(=O)N3CC4C(C3)C4(C)C)cn2)n1 (stereo not drawn)
84. CC(=O)c1cccc(NC(=O)CCCn2nc(-c3ccc(F)cc3)ccc2=O)c1
85. COc1ccc(C2SCCN2S(=O)(=O)c2ccc(OC)cc2)cc1 (stereo not drawn)
86. COCc1nc(N(C)Cc2nccn2C)c2cnn(C)c2n1
87. O=C(c1ccno1)N1CCN(c2nc3c(F)cc(F)cc3s2)CC1
Assay by compound	81	82	83	84	85	86	87
NPYLR7 ag	0.8	-2.9	0.3&12.0	7.6	8.0	1.7	-4.4
NPYLR7 ag max-min	3.0	1.6	-2.4&7.4	7.5	1.5	-4.5	-10.3
